# Screening results deposited in PubChem BioAssay by several laboratories.
# eIF4H inh: human eIF4H binding inhibitors, primary screen, translation initiation inhibitor project, biochemical, uHTS, fluorescence polarization | Eukaryotic translation initiation factor 4H (Homo sapiens), Q15056 | eIF4H fluorescence polarization binding assay | inhibition, % at 35 µM | actives 0.94% (n = 290,000) | AID 2012, 2009;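 active means 50% or more with normal probe brightness, or confirmed in later tests; inconclusive means above 50% with abnormal brightness, or retests that disagree; inactive means below 50% or failed in later tests; about a fifth of its hits are not listed in these tables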;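 further: calls also rest on retests at 20 µM and on dose response follow-up; 0% = protein and probe with vehicle and 100% = probe without protein; strong numbers were not always called active; many hits fall short of the cut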
# Rce1 inh: yeast Rce1p protease inhibitors, primary screen, biochemical, fluorescence, cell-free homogeneous; actives 0.27% (n = 290,000); CAAX prenyl protease 2 (Saccharomyces cerevisiae (strain ATCC 204508 / S288c)), Q03530; calls only; yeast membranes, quenched prenylated peptide cleavage fluorescence;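 active means fall in fluorescence gain of 50% or more versus controls, with final raw signal at or below 3038400; inconclusive means same 50% fall but final raw signal above 3038400; inactive means fall in fluorescence gain under 50%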;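 further: plate controls were neutral control wells for no effect and wells lacking membranes for full effect; tested at 10 µM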
# Target sequence (Q03530 whole entry, looked up): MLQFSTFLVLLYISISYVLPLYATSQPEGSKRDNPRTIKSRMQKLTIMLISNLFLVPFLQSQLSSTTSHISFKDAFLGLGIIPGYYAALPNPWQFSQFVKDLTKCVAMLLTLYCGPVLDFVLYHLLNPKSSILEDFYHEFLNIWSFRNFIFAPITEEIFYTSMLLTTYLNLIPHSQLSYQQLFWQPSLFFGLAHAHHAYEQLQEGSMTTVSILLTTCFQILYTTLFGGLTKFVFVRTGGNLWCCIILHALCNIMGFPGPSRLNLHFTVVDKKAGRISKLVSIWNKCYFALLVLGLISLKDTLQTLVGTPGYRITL
# PABP polyA inh: PABP poly(A) RNA binding inhibitors, primary screen, biochemical, fluorescence polarization, uHTS; Polyadenylate-binding protein 1 (Homo sapiens), P11940; actives 1% (n = 290,000); AID 2014, 2009; inhibition, % at 35 µM;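 active means 50% or more with normal probe brightness, or confirmed in later tests; inconclusive means above 50% with abnormal brightness, or retests that disagree; inactive means below 50% or failed in later tests; about a fifth of its hits are not listed in these tables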;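 further: calls also rest on retests at 20 µM and on dose response follow-up; controls were probe without protein and protein plus probe with vehicle; some compounds called inactive have numbers as strong as hits; many hits fall short of the cut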
# Target sequence (P11940 whole entry, looked up): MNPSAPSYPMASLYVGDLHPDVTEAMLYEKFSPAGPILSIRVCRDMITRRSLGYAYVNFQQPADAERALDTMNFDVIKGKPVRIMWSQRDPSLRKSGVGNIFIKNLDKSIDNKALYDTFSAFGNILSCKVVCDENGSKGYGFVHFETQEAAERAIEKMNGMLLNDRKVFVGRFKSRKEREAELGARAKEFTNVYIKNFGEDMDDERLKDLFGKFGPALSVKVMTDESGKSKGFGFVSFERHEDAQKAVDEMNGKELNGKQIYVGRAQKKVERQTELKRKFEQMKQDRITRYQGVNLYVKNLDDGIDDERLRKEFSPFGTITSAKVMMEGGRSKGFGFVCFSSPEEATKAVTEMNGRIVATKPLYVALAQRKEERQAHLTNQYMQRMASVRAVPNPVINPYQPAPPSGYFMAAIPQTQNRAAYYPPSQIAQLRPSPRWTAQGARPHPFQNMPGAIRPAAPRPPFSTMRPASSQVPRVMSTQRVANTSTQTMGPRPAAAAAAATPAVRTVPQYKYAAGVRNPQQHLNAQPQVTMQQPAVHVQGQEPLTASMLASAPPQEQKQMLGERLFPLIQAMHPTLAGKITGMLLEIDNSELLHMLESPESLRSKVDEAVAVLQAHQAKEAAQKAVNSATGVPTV
# MT1-MMP act inh: blockers of MT1-MMP proenzyme processing, primary screen, HT1080 RFP-PRO-GFP cells, GFP/RFP fluorescence; Matrix metalloproteinase-14 (Homo sapiens), P50281; GFP/RFP ratio fluorescence, overnight; percent of plate control window, DMSO zero; GFP/RFP ratio change, % at 20 µM; actives 0.061% (n = 360,000);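 active means GFP/RFP ratio change of at least 30% with cell ATP level not reduced by more than half and red fluorescence within 50% of control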; further: strong numbers were not always called active
#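 Compound: 20 µM single dose, 1% DMSO / System: HT1080 RFP-PRO-GFP cells / Controls: DMSO and RFP-L50D-GFP cell wells / Read-out basis: GFP/RFP fluorescence ratio / Schedule: overnight compound exposure at 37 °C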
# HIV Env fusion: inhibitors of HIV-1 Env-driven cell-cell fusion, primary screen, HeLa-JRFL effector, CEM21 target cells, luciferase; inhibition, % at 12.3 µM; actives 1.1% (n = 360,000); AID 651610, 2012;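 active means mean replicate inhibition score of at least 50 and every replicate individually at or above 50; inconclusive means only one of the two criteria met; inactive means mean below 50 and not all replicates reaching 50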;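 further: 0% = plate neutral controls and 100% = maraviroc near 300 nM; one replicate is shown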
# CSC inhib: cancer stem cell viability inhibitors, primary screen, luminescence; cancer stem cell-like cells viability; inhibition, % at 7.5 µM; actives 1.1% (n = 300,000); AID 2717, 2010;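 active means mean at 75% or more and at least half the replicates too; inconclusive means mean and replicates disagree; tested in HMLE shEcad cells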;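 further: 0% = median of negative and 100% = median of positive control wells; the first replicate is given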
# UUG fidelity: modulators of yeast start codon fidelity, primary screen, whole organism, S. cerevisiae, single point, plate reader; S. cerevisiae UUG-firefly luciferase reporter, luminescence/redox ratio; activity score, % at 18.7 µM; actives 0.13% (n = 350,000); AID 602363, 2012;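 active means replicate mean at a twofold rise or more, about +100% in these data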;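 further: firefly luciferase made from a UUG start codon reports start codon fidelity; reporter light over untreated wells divided by growth signal over untreated wells; some hits fall short of that in this replicate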
# eIF4H inh retest: recorded beside eIF4H inh, whose call it bears; inhibition, %; compound at 20 µM; confirmation average;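 mean of two retest wells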
# PABP polyA inh retest: second read-out of PABP polyA inh, no call of its own (marks repeat the call); inhibition, %; compound at 20 µM; confirmation repeats;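 mean of two retest wells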
# MT1-MMP act inh RFP: recorded beside MT1-MMP act inh, whose call it bears; RFP signal change, %; measured here: RFP expression control read;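 0 = vehicle wells; hits needed this value within 50% of zero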
# The depositor's hits bear a star; i = inactive; ? = inconclusive; . = no result given. Only part of the results is shown. The share of hits here may be higher or lower than overall.
SMILES,eIF4H inh,Rce1 inh,PABP polyA inh,MT1-MMP act inh,MT1-MMP act inh RFP,HIV Env fusion,CSC inhib,UUG fidelity,others
Nc1ccc(-c2cc(N)n(-c3ccccc3)n2)cc1,-10,i,24,4,-1,.,-6,-13,
CSCCC(NC(=O)c1ccco1)C(=O)N1CCN(Cc2ccccc2)CC1 (centres undefined),.,i,.,0,1,3,-3,-12,
COc1ccc(N2C(=O)c3ccc(C(=O)Nc4cc(OC)ccc4OC)cc3C2=O)cc1,-2,i,0,6,8,-20,3,-26,
Cc1cccc(N2CCN(C(=O)c3cccc(N4CCCC4=O)c3)C(C)C2)c1 (centres undefined),.,i,.,-8,-17,13,-4,-14,
CCCCOC(=O)c1ccc(NC(c2ccc(C)cc2)P(=O)(OC)OC)cc1 (centres undefined),-6,i,4,-2,-5,10,4,.,
CCCS(=O)(=O)N1CCC(C(=O)N2CCCC2)CC1,-14,i,9,9,8,.,-3,-7,
Cn1c(=O)c2c(nc(N3CCCCC3)n2CCNC2=NCCC2)n(C)c1=O,-6,i,-11,3,8,.,-9,.,
CCC(C)[C@H](NC(=O)[C@@H]1Cc2c([nH]c3ccccc23)C2c3ccccc3C(=O)N21)C(=O)N1CCC[C@@H]1C(=O)O (some centres undefined),3,i,14,-6,4,.,-4,-1,
CCOC(=O)[C@H]1[C@H]2COc3ccc(Br)cc3[C@@H]2N2C(=O)c3ccc(Cl)cc3NC(=O)[C@@]12C,.,.,.,-35,-24,-96,33,-2,
OC(CN1CCN(c2ccccc2F)CC1)c1ccc(F)cc1 (centres undefined),-19,i,-5,0,2,16,18,-7,
Cc1ccc(NC(=O)CN2C(=O)COc3ccc(S(=O)(=O)N4CCCC4)cc32)cc1C,-10,i,-1,3,1,-1,-9,-16,
CCOC(=O)CNC(=O)CSc1nc(N)cc(N)n1,14,i,-1,-3,-6,?,-2,-23,
CCSc1nnc(SCC(=O)NC2CCCCC2)s1,.,.,.,0,1,-4,-12,1,
O=C(c1ccc2c(c1)OCCO2)C1CCN(C(=O)Nc2ccccc2F)CC1,-21,i,1,-1,-4,1,.,6,
CCN(CC)c1ccc(-c2n[nH]c(=S)n2-c2ccccc2C)cc1,-1,i,-8,-5,-5,-16,.,.,

# Random excerpt: 2 compounds from above.
SMILES,eIF4H inh,Rce1 inh,PABP polyA inh,MT1-MMP act inh,MT1-MMP act inh RFP,HIV Env fusion,CSC inhib,UUG fidelity,others
Nc1ccc(-c2cc(N)n(-c3ccccc3)n2)cc1,-10,i,24,4,-1,.,-6,-13,
OC(CN1CCN(c2ccccc2F)CC1)c1ccc(F)cc1 (centres undefined),-19,i,-5,0,2,16,18,-7,

# Additional records follow.
SMILES,eIF4H inh,Rce1 inh,PABP polyA inh,MT1-MMP act inh,MT1-MMP act inh RFP,HIV Env fusion,CSC inhib,UUG fidelity,others
Cc1cccc(C(=O)Nc2ccc(S(=O)(=O)Nc3nc(C)cc(C)n3)cc2)c1,-8,i,-3,-2,-3,-5,-10,-2,
O=C1c2ccccc2C(=O)C1c1nccc2ccccc12,39,i,51,-7,-6,.,-5,.,eIF4H inh retest=8;PABP polyA inh retest=0
Cc1[nH]c2ccccc2c1C(=O)CN1CCCC1,3,i,6,-8,3,.,-8,1,
CNC(=O)NC(=O)COC(=O)/C=C/c1cccc(Br)c1,3,i,4,-7,-1,9,.,.,
Cc1nnc(N/N=C/C2CC=CCC2)[nH]c1=O (centres undefined),-1,i,3,13,11,-5,10,.,
Cc1ccc(CCNC(=O)CS(=O)Cc2nc(-c3cccs3)oc2C)cc1 (centres undefined),-4,i,20,-6,-4,21,-20,.,
O=C(Nc1ccc(F)cc1F)Nc1csc2ccccc12,-3,i,1,3,-3,-11,16,14,
CCCCOc1cccc(/C=C(\C#N)C(=O)NC2CC2)c1,-3,i,1,2,0,6,4,-4,
COc1ccc(N2CCN(C(=O)CCNC(=O)c3ccc(C(C)(C)C)cc3)CC2)cc1,-6,i,-1,0,-6,2,3,.,
CC1(c2ccccc2)NC(=O)N(CC(=O)NNC(=O)c2ccccc2F)C1=O (centres undefined),.,.,.,2,3,2,.,-5,
CSc1cc(-c2ccc(Cl)cc2)c(C(=O)N2CCCC2)s1,1,i,2,-10,-4,.,-17,-4,
COc1ccc(-c2cn[nH]c2-c2ccc(OCC(=O)NN)cc2O)cc1OC,6,i,3,-3,1,0,-4,-10,
CCOP(=O)(OCC)C(NC(C)=O)C(=O)c1ccccc1 (centres undefined),0,i,-10,-1,-1,7,-5,.,
CSc1ccccc1C(=O)N1CCC(CCC(=O)NC2CC2)CC1,7,i,4,2,3,-2,-2,-16,
COc1ccc(C(=O)NC(=S)Nc2cccnc2)cc1Cl,4,i,11,-4,-5,-6,-12,-1,
C/C(N)=C(/C#N)C(=O)COC(=O)Cc1coc2ccc3ccccc3c12,0,i,28,2,1,0,3,.,
CCOc1cc(/C=C(/NC(C)=O)C(=O)O)cc(Cl)c1OCc1cccc(Br)c1,0,i,15,5,4,-1,-8,-6,
Cc1cccc(Cl)c1NC(=S)NCCc1ccccn1,-8,i,5,-4,0,-5,-4,.,
CCOC(CCNC(=O)c1cc(-c2cccs2)nc2ccccc12)OCC,3,i,2,5,1,6,0,-15,
COc1cc(C(=O)NCCNC(=O)c2cc(OC)c(C)c(OC)c2)cc(OC)c1C,-5,i,4,2,5,1,-1,-13,
CC1=CCC(Cc2nc3ccccc3o2)C1(C)C (centres undefined),13,i,1,2,4,-9,-14,-1,
CCNC(=O)COC(=O)C1CCN(S(=O)(=O)c2ccc3c(c2)OCCO3)CC1,.,i,.,3,6,2,-19,.,
CN(C)c1ccc(P(=O)(OC2CCCCC2)C(O)c2ccncc2)cc1 (centres undefined),2,i,-7,-4,1,-2,-9,-15,
Cc1ccc2c(C)c(C(=O)N3CCC(C(N)=O)(N4CCCCC4)CC3)oc2c1C,.,.,.,-4,-4,0,.,-6,
COC(=O)c1cc2sccc2n1Cc1ccc(C)cc1,-12,i,1,-8,-4,25,-7,-9,
COC(=O)/C(C#N)=C/c1c(Oc2cccc(C)c2C)nc2ccccn2c1=O,-1,i,0,2,-1,3,-10,.,
CC1(C)CC(=O)C(C=NCCN2CCOCC2)=C(O)C1,-3,i,2,2,2,.,4,-31,
CCOC(=O)N1CCN(CCC(=O)Nc2cc(OC)cc(OC)c2)CC1,4,i,-6,12,6,.,-5,10,
CC(C)OC(=O)CSc1nnc(-c2ccc(Cl)cc2Cl)n1N,0,.,1,1,1,24,-8,3,
c1ccc(N2CCN(c3nccn4ccnc34)CC2)nc1,.,.,.,0,2,3,.,-21,
Cc1cccc(NC(=O)C2CCN(c3nccc(C)n3)CC2)c1,-2,i,1,-1,3,-51,-3,2,
COc1ccc(N2CCN(CC(=O)c3ccc(O)c(C)c3O)CC2)cc1,1,i,-6,-2,-1,1,-11,-14,
CC[n+]1c(C)cc2c(sc3ccccc32)c1C,-4,.,1,-4,-13,22,.,.,
CCCc1cc(=O)oc2cc(OCC(=O)NCC3CCC(C(=O)O)CC3)ccc12 (centres undefined),-8,i,1,-2,2,.,0,-5,
NC(=O)c1nsc(C(=O)N(c2cccc(F)c2)C(C(=O)NCC2CCCO2)c2cccs2)c1N (centres undefined),-14,i,0,-3,-1,4,-9,.,
C=CCn1c(=O)c2ccccc2n2nnc(C(=O)OCC)c12,-9,i,5,1,3,3,-7,-10,
CC1CSc2ccccc2NC1=S (centres undefined),7,i,6,-2,4,-157,-16,-25,
O=C(CCCCl)NC1=NN(c2ccccc2)C(=O)C1,-9,.,7,2,2,7,8,.,
CCOc1ccc(NC(=O)NCc2cccn2C)cc1,-5,i,7,-1,1,-4,.,-10,
O=C(NCCCN1CCCC1=O)Nc1ccc(Cl)cc1Cl,-14,i,-15,1,3,-6,0,-11,
O=C1c2ccccc2NC2CCCCCN12 (centres undefined),4,i,-9,-2,1,10,15,1,
CCN(CC)CCNC(=O)c1ccc(NC(=O)c2cc(S(=O)(=O)N3CCCCC3)ccc2N2CCOCC2)cc1,.,.,.,-4,0,-4,.,-13,
CN(C)c1cccc(CNC(=O)c2ccc3sc([C@@H]4O[C@H](CO)[C@H](O)[C@H](O)[C@H]4O)nc3c2)c1,.,.,.,-5,3,-4,.,4,
O=C(O)C1C2C=CC(O2)C1C(=O)Nc1ccc(S(=O)(=O)Nc2ccccc2)cc1 (centres undefined),15,.,8,10,2,-30,-2,-7,
Cc1ccc(NC(=O)COC(=O)c2ccc([N+](=O)[O-])s2)c(C)c1,6,i,-2,2,3,-19,-10,.,
COc1ccc(Cl)c2sc(N(CCN(C)C)C(=O)CCS(=O)(=O)c3ccc(C)cc3)nc12,.,i,.,0,-6,-12,-5,.,
COC(=O)c1cc(C#N)c(Oc2ccccc2)nc1C,.,i,.,0,4,.,-10,13,
CCCOc1ccc(N2C(=O)CC(NCCNc3ccc(S(=O)(=O)CC)cc3)C2=O)cc1 (centres undefined),1,i,24,4,-1,.,-7,-14,
Cc1ccc(S(=O)(=O)NCc2cc(=O)n(C)c(=O)n2C)cc1C,0,i,6,-2,-1,-7,-7,-6,
Cc1ccsc1CNC(=O)C1(C)CCN1C(=O)C(C)C (centres undefined),.,.,.,13,1,-6,.,-12,
COc1ccc(CN(C)CC(=O)NC(C)c2ccccc2)c(OC)c1 (centres undefined),-6,i,-6,4,4,3,-9,-4,
COc1cc2c(cc1OC)CN(C(=O)C1(c3ccccc3)CC1)CC2,-2,i,6,3,4,7,-13,-3,
O=C(Nc1ccc(F)cc1)c1ccc(CN2CCc3ccccc3C2)cc1,-2,i,-5,-4,-28,4,-9,-11,
COCCNC(=O)C(c1ccc(C)cc1)N(Cc1ccco1)C(=O)CCC(=O)Nc1ccccn1 (centres undefined),-6,i,-7,-4,1,-7,.,-10,
COCCn1c(C)cc(C(=O)COC(=O)/C=C/c2ccc(OC)cc2OC)c1C,.,.,.,0,0,14,6,-13,
Cc1ccnc(SCCn2c(N3CCN(C)CC3)nc3c2c(=O)n(C)c(=O)n3C)n1,-1,i,1,-1,-2,-9,17,.,
CCc1ccc2[nH]c3nc(C)cc(C)c3c(=O)c2c1,-8,i,7,-14,-11,-23,6,.,
CCN1CCN(c2ccc(N=Cc3ccc(O)cc3O)cc2)CC1,-8,i,-1,-2,0,-3,-1,.,
CCN(CC)CCN1C(=O)C(O)=C(C(=O)c2ccco2)C1c1ccccn1 (centres undefined),29,i,40,3,5,7,7,-14,
COc1ccc(-c2nc(N)ncc2-c2csc(C)n2)c(O)c1OC,4,i,-3,1,3,-3,2,-3,
CC(C)NC(=O)C(OC(=O)c1ccccc1)C(OC(=O)c1ccccc1)C(=O)O (centres undefined),-6,i,10,-6,-4,5,-19,5,
CC(=O)Nc1ccc(S(=O)(=O)N(CC(=O)NC2CC2)Cc2ccccc2)cc1,.,.,.,-1,-3,.,7,-11,
CN(Cc1cccc(F)c1)C(=O)CNS(=O)(=O)c1ccc2ccccc2c1,0,i,6,6,5,7,-6,-18,
